Source: PubChem BioAssay (National Center for Advancing Translational Sciences (NCATS))
Rango-impB inh = prevents formation of the Rango-importin beta complex | Q14974 | Rango CFP/YFP FRET sensor + importin beta, 45 min | Potency, µM (highest dose often 92.2 µM), without a hit: at the top dose inhibition of complex formation | 340,000 compounds, 0.031% hits; active = rising FRET ratio curve, often small or poorly fitted; inconclusive = mostly compound fluorescence or quenching in the first reads; inactive = flat curves in all reads;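 further: potency means the concentration at half of the fitted maximal effect; 0% = DMSO wells and 100% = buffer wells lacking importin beta; nearly all actives have a fitted effect of over 15% in size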
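Inhibition scored from the CFP 486 nm/YFP 530 nm FRET ratio 45 min after adding 0.125 microM importin beta to 50 nM Rango biosensor preincubated 5 min with compound (room temperature, PBS with DTT, Tween-20, BSA). No-importin wells as positive control.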
Rango release inh = prevents RanGTP from dissociating the Rango-importin beta complex; Potency, µM (titrated, usually from 46.1 µM), without a hit: at the highest dose activity change, negative = inhibition; 340,000 compounds, 0.071% hits; Biochemical FRET Rango-importin beta, RanGTP-induced dissociation; O95149+P62826; AID 540253; active means falling FRET ratio curve, often poorly fitted, with flat reads before Ran was added; inconclusive means other falling curves, or compound fluorescence or quenching; inactive means flat or rising ratio curve;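 further: potency means the concentration at half of the fitted maximal effect; % of control where 0% means no effect; nearly all actives have a fitted effect of over 45% in size; -100% = wells without RanGTP and RCC1; the record marks most hits as doubtful in a second field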
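Rango (0.1 uM)–importin beta (0.25 uM) complex; RanGTP-RCC1 trigger; 45 min RT; CFP/YFP FRET read.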
GLA inh pH 4.5 = blocks human alpha-galactosidase A at pH 4.5; P06280; purified enzyme, 4-MU-alpha-Gal fluorescence, pH 4.5; activity change, negative = inhibition, % at 105 µM; 230,000 tested, under 10 active; AID 1467; inconclusive = small, poorly fitted or top-dose-only inhibition, or a rising curve; inactive = flat fitted curve, though single readings scatter; no compound was filed as active;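 further: 0% = full activity with enzyme and -100% = basal without enzyme; dose as in the result columns while the protocol names 77 µM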
Target sequence (P06280 whole entry, looked up): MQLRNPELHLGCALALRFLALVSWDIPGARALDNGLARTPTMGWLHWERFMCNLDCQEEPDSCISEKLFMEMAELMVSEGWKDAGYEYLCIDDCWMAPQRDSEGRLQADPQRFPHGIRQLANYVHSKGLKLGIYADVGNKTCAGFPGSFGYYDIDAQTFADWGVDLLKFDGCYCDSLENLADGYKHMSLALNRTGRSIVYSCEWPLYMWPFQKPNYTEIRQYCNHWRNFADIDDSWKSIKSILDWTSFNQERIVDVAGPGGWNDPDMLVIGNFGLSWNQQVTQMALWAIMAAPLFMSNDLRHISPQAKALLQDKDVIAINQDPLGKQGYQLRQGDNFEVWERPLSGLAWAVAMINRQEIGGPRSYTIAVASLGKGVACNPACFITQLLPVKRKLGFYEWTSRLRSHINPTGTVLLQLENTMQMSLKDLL
miR-21 FLuc = raises the signal of a miR-21 reporter | HeLa miR-21 FLuc reporter, luciferase, 48 h | Potency, µM (highest dose often 38.3 µM), for inactives: at the highest dose reporter change, positive = more light | 340,000 tested, under 10 active; active = well fitted rising curve with a large enough effect; inconclusive = small, poorly fitted or top-dose-only effect; inactive = no such curve, though single readings can be large or run the other way;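 further: % of control where 0% means no effect; miR-21 action dims this reporter so a rising signal means less miR-21 action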
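HeLa miR-21-FLuc reporter line, endogenous miR-21; 2000 cells/well in DMEM/10% FBS; compound titration up to ~40uM final, 48 h, 37 degree Celsius; luciferase detection reagent, 15 min lysis, CCD luminescence.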
* marks the source's active call; other numbers are inactive results; ? = inconclusive; · = not tested or not shown; & = joins results of further samples; [ ] = dose if it differs, or a comment.

SMILES | Rango-impB inh | Rango release inh | GLA inh pH 4.5 | miR-21 FLuc
COC(=O)c1ccc(CNC(=O)COC(=O)CCN2C(=O)C3CC=CCC3C2=O)cc1 (stereo unspecified) | 2.1% | 2% | · | ·
CC(=O)c1cccc(CN2CCCC(C(=O)Nc3cccc(-n4cccn4)c3)C2)c1 (stereo unspecified) | -1.2% | 12% | · | 17%
COCC(=O)n1nc(-c2ccc(Cl)cc2)nc1NCc1ccc(F)cc1 | 1.2% | 6% | -11 | -7%
CCN1C(=O)/C(=C/N2CC(C)CC(C)C2)SC1=S (stereo unspecified) | -0.6% | 2% | 0 | 0%
O=C(C1CCCN(Cc2cccc(F)c2)C1)N1CCCCC1 (stereo unspecified) | 2.2% | 0% | 4 | 0%
Cc1ccc(NC(=O)CNC(=O)Cc2cccc3ccccc23)c(O)c1 | -2.9% | 1% | · | ·
Cc1ccccc1-c1nc(CS(=O)(=O)CC(=O)NCCCN2CCCC2=O)c(C)o1 | 1.8% | -10% | 3 | -8%
CNC(=S)NNC(=O)c1sccc1OCc1ccc(Cl)cc1Cl | -0.4% | 18% | 3 | 2%
Cc1cccc(OC(=O)c2sc3ncn(C)c(=O)c3c2C)c1 | -0.4% | 10% | -2 | -58%
Cc1cccc(-n2c(=S)[nH]c3c(oc4ccccc43)c2=O)c1 | -2.3% | -5% | -2 | -11%
Cc1cc(NC(=O)c2ccc(Cl)cc2Cl)n(-c2ccccc2)n1 | 0.6% | 22% | · | ·
Cc1c(-c2ccccc2)[n+](=O)c2c(n1[O-])CCCCC2 | -5.1% | -12% | -1 | -5%
Cc1cc(C(=O)N/N=C/c2cccnc2)cs1 | -1.0% | -9% | -3 | -31%
COc1ccc(CN(C(=O)/C=C/c2ccccc2Cl)C2CCS(=O)(=O)C2)cc1 (stereo unspecified) | -2.2% | 0% | -10 | -29%
CN(C)CCCN(C(=O)c1ccc(S(=O)(=O)N2CCc3ccccc3C2)cc1)c1nc2ccc(F)cc2s1 | 3.2% | 10% | · | ?
Cc1ccc(-n2cc(CNCCCn3cccn3)c(-c3cccc(C)c3)n2)cc1 | 0.7% | -1% | -10 | ?
CCCCOc1cccc(C2(C(=O)O)CCCC2)c1 | -1.1% | 0% | 0 | -7%
O=C(Nc1ccccc1C(=O)N1CCCC1)c1ncoc1-c1cccc(Cl)c1 | 4.4% | -19% | · | 18%
Cc1ccc(CNC(=O)Cn2c(=O)c3sccc3n(Cc3ccc([N+](=O)[O-])cc3)c2=O)cc1 | -2.0% | 28% | 2 | -7%
O=[N+]([O-])c1cc(C(F)(F)F)ccc1Sc1ccccn1 | 0.3% | 1% | 8 | -14%
O=C1NC(Cc2ccc(O)cc2)c2nc3ccc(F)cc3c(=O)n2-c2cc(Cl)ccc21 (stereo unspecified) | -3.5% | 2% | · | ·
Cn1c(C(=O)NCCN2CCc3ccccc3C2)cc2c(=O)n(C)c3ccccc3c21 | 0.0% | -12% | -4 | 0%
CCCN1CCC(=O)N([C@H](COc2ccccc2)CC(C)C)CC1 | 0.1% | -20% | · | -6%
C/C(=N/NC(=O)CCc1ccccc1)c1ccc2c(c1)OCO2 | -0.3% | -4% | · | -21%
COc1cc(/C=C2\C=CC(=O)O2)cc(OC)c1 | ? | -30% | · | -1%
COC(=O)c1ccc(COC(=O)C(NC(=O)Cc2ccccc2)C(C)C)cc1 (stereo unspecified) | 2.6% | -11% | · | ·
CC[C@@H](C)[C@@H]1CN([C@@H](CN2CCC[C@H]2CN2C(N)=NC[C@H]2C(C)C)C(C)C)C(=N)N1CCCC1CCCC1 | 2.5% | -9% | · | ·
COc1cccc(-c2ccc(=O)n(CC(=O)Nc3ccc(S(=O)(=O)NCC(C)C)cc3)n2)c1 | · | · | -29 | -5%
COc1ccc(C(=O)NC(=O)COC(=O)CCS(=O)(=O)c2ccc(C)cc2)cc1 | 4.2% | -11% | · | ·
COc1ccc(N/N=C(/C(C)=O)N2CCCc3ccccc32)cc1 | -1.6% | 0% | -2 | -1%
Cc1cc2n(n1)C(c1cn(-c3ccccc3)nc1C)Nc1ccccc1-2 (stereo unspecified) | -2.5% | 19% | -5 | 0%
COC(=O)CSc1nc(N)nc(C)c1Br | -2.6% | -1% | 14 | -1%
COc1ccc(-n2c(-c3ccc(OC)c(OC)c3)n[nH]c2=S)cc1 | 0.2% | 0% | · | -21%
NC(=O)CNC(=O)[C@@H]1CC2(CC(c3ccc(Cl)cc3)=NO2)CN1C(=O)c1ccc(Br)cc1 (stereo partly specified) | 0.2% | 15% | -9 | 0%
O=C(Nc1ccccc1-c1nnn(CC(=O)N2CCc3ccccc3C2)n1)C1CCC1 | 5.4% | 0% | -1 | -8%
O=C(CNCCC1=CCCCC1)Nc1ccccc1N1CCCCCC1 | -0.9% | -2% | 1 | 9%
O=C(NC1CCCCCCC1)c1cccc(Cl)c1 | -1.2% | -14% | · | -54%
CN(C)/C=N/C(=S)Nc1ccc(Cl)c(Cl)c1 | -0.4% | 2% | -2 | -12%
O=S1(=O)CCC(NS(=O)(=O)/C=C/c2ccccc2)C1 (stereo unspecified) | -0.6% | -1% | 5 | -5%
CCn1nnnc1SCC(=O)Nc1ccc(F)cc1 | 0.2% | -5% | · | -7%
Cc1oc(C(=O)O)cc1COc1cccc2cccnc12 | -5.9% | 2% | 0 | 3%
Cc1nc(N2CCOCC2)nc(N2CCN(c3ccccc3)CC2)c1[N+](=O)[O-] | -1.4% | -1% | 0 | 0%
Cc1ccc(-n2c(SCC(=O)Nc3cccc(C)c3)nc3c(oc4ccccc43)c2=O)cc1 | · | · | -2 | -9%&-7%
O=C(COc1cccc2c1CCN(Cc1ccc(Br)cc1)C2=O)NCc1ccco1 | -5.7% | -2% | -7 | -6%
Cc1ccc2oc(=O)c3cnn(CC(=O)NCCN(C)C)c3c2c1 | 0.0% | -4% | 2 | -4%
CCCCn1c(N)c(N(CCOC)C(=O)c2cccc(N3C(=O)c4ccccc4C3=O)c2)c(=O)[nH]c1=O | -1.9% | 9% | · | ·
COc1ccccc1NC(=O)CSc1nc(=O)n(CCN(C)C)c2c1CCCC2 | 5.2% | -11% | · | ·
COCCCNC(=O)c1cc(-c2cccnc2)nc2ccc(S(=O)(=O)N3CCCCCC3)cc12 | 0.2% | 4% | · | -2%
O=Nc1c(O)n(Cc2cccc(Cl)c2)c2ccccc12 | -0.3% | -12% | 3 | -8%
Cc1ccccc1C(=O)Nc1ccc(C(=O)NNC(=O)CCCOc2ccc(Cl)cc2Cl)cc1 | -0.8% | -8% | -2 | 0%

More records follow.
SMILES | Rango-impB inh | Rango release inh | GLA inh pH 4.5 | miR-21 FLuc
Cc1ccc(-c2nn(-c3ccccc3)c3[nH]c(=O)c(CNCCN(C)C)cc23)cc1 | · | · | -13 | -1%
CC(C)C(O)(C#CCN1CCCCC1)C(C)C | -1.7% | 5% | 3 | -1%
CCC(=O)N1CCc2cc(S(=O)(=O)CCC(=O)Nc3ccc(CC)cc3)ccc21 | 2.1% | 6% | -14 | -2%
CN1C(=O)[C@H]2[C@@H](c3ccc(F)cc3)N3C(=O)c4ccccc4NC(=O)[C@@]3(C)[C@H]2C1=O | 0.9% | -15% | · | -1%
CCN(CC)S(=O)(=O)c1ccc2oc(C(=O)NC(C)C)c(C)c2c1 | -0.3% | 3% | -11 | 12%
CCN1C(=O)[C@H]2[C@@H](c3ccc(-c4ccccc4)cc3)N[C@@](Cc3ccccc3)(C(=O)OC)[C@H]2C1=O | -0.6% | 1% | · | ·
COc1ccc(S(=O)(=O)N2CCCCCC2)cc1NC(=O)Cc1cc(OC)c(OC)c(OC)c1 | -0.6% | 3% | -16 | 0%
COc1cc(NC(=S)Nc2ccc(OC(F)F)cc2)cc(OC)c1 | ? | 32% | ? | 1%
Cc1c(Cl)cccc1N1CC(C)(C)C1=O | -0.5% | 0% | -3 | -1%
Cc1ccc(S(=O)(=O)N2CCOCC2)cc1C(=O)NC(=S)N(Cc1ccccc1)C(C)C | 1.0% | 9% | 1 | 1%
Nc1nnn(CC(=O)N/N=C/c2cn[nH]c2-c2ccccc2)n1 | 4.8% | 23% | -9 | 0%
CC1=C(C(=O)Nc2cccc(C(=O)N3CCC(C(N)=O)CC3)c2)SCCO1 | 1.5% | -8% | · | 0%
CC(C(=O)N(C)C)N1c2cccc3cccc(c23)S1(=O)=O (stereo unspecified) | 4.3% | -12% | · | -8%
Cc1ccc(S(=O)(=O)c2ccc(NC(=O)c3c(F)cccc3F)cc2)cc1 | 4.1% | 0% | · | -6%
O=C(N/N=C/c1cccc([N+](=O)[O-])c1)c1ccccc1-n1cccc1 | -1.8% | ? | -5 | -5%
Cn1nc(CC(=O)NCCN2C(=O)CSC2=O)c2ccccc2c1=O | 0.3% | -5% | -6 | 4%
Cc1ccc(C(C(=O)NC2CCCCC2)N(CCC(C)C)C(=O)CNC(=O)c2ccco2)o1 (stereo unspecified) | 3.8% | 0% | -3 | -3%
O=C(c1ccc(-c2cccc(C(F)(F)F)c2)o1)N1CCN(c2ccccc2)CC1 | 0.4% | 3% | · | ·
CN(C)S(=O)(=O)N1CCC(Oc2ccc(C(=O)N3CCCCCCC3)cc2)CC1 | 0.0% | -6% | · | -33%
Cn1c(=O)c2c(nc(SCCN3CCOCC3)n2Cc2ccc(Cl)cc2)n(C)c1=O | -0.3% | 21% | · | ·
Cc1cc(NC(=O)CN2CCCC(C)C2)no1 (stereo unspecified) | 2.0% | 0% | 2 | -29%
COC(=O)[C@H](CCSC)NC(=O)NC1CC1 | -1.2% | 1% | 2 | -1%
CSc1ncccc1-c1nc2ccccc2[nH]1 | 2.8% | -4% | -1 | -46%
Cc1cccc2cc(CN(Cc3cccs3)C(=S)NCC3CCCO3)c(=O)[nH]c12 (stereo unspecified) | -4.2% | 2% | -19 | 0%
COc1ccc(CN2CCN(C(=O)c3cccnc3)CC2)cc1Br | ? | -19% | -5 | -4%
CCN(CC)S(=O)(=O)N1CCC(C(=O)NCCC2=CCCCC2)CC1 | 2.2% | 4% | 2[21.1 µM] | -5%
O=C(Oc1cccnc1)c1cc(S(=O)(=O)N2CCCCC2)ccc1Cl | 1.8% | 14% | 4 | 0%
O=[N+]([O-])c1cc([N+](=O)[O-])c(Oc2cc(F)cc(F)c2)cc1NN1CCCCC1 | -0.6% | 12% | · | ·
Nc1ncnc(Nc2ccccn2)c1[N+](=O)[O-] | -1.2% | -10% | 1 | 7%
COC(=O)C1=NN(c2cccc(C)c2)C2C(=O)N(c3ccccc3OC)C(=O)C12 (stereo unspecified) | 2.7% | -14% | -3 | -1%
CC(C)c1ccc2c(c1)C(c1ccc(N3CCOCC3)cc1)=NNC(c1cccs1)=N2 | 0.0% | -1% | 0 | -51%
O=C(Nc1ccc(F)c([N+](=O)[O-])c1)C1CC(=O)N(Cc2ccccc2)C1 (stereo unspecified) | 0.4% | 10% | 3 | -1%
COc1ccccc1N1CCN(C(=O)c2cc(-c3ccco3)on2)CC1 | 3.3% | -19% | 1 | -32%
CC1=C(C)CC(C(=O)NC2CCCC2)C(C(=O)O)C1 (stereo unspecified) | -0.4% | -13% | · | 1%
O=Cc1ccc(-c2nc3ccccc3s2)o1 | -3.2% | 2% | 6 | -44%
O=C(NCc1ccccc1C(F)(F)F)c1cccc2c1C(=O)c1ccc(N3CCOCC3)cc1S2(=O)=O | ? | ? | · | ·
Cc1nc(/N=C\N(C)C)sc1C(=O)Nc1ccccc1 | -5.4% | 11% | -2 | -37%
NS(=O)(=O)c1ccc(NNC(=O)c2ccccc2C(=O)O)cc1 | -0.8% | 0% | -1 | -26%
Cc1ccc(-c2cc(C(=O)N/N=C/c3c(C)nn(-c4ccccc4)c3C)[nH]n2)cc1 | · | · | -1 | 19%

Not all compounds are listed; the hit share may differ from the screen's.
